# GLA inh pH 4.5: inhibitors of human alpha-galactosidase A at pH 4.5 | purified enzyme, 4-MU-alpha-Gal fluorescence, pH 4.5 | P06280 | activity change, negative = inhibition, % at 105 µM | AID 1467 | 230,000 tested, under 10 active; inconclusive = small, poorly fitted or top-dose-only inhibition, or a rising curve; inactive = flat fitted curve, though single readings scatter; no compound was filed as active;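 also: 0% = full activity with enzyme and -100% = basal without enzyme; dose as in the result columns while the protocol names 77 µM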
# Target sequence (P06280 whole entry, looked up): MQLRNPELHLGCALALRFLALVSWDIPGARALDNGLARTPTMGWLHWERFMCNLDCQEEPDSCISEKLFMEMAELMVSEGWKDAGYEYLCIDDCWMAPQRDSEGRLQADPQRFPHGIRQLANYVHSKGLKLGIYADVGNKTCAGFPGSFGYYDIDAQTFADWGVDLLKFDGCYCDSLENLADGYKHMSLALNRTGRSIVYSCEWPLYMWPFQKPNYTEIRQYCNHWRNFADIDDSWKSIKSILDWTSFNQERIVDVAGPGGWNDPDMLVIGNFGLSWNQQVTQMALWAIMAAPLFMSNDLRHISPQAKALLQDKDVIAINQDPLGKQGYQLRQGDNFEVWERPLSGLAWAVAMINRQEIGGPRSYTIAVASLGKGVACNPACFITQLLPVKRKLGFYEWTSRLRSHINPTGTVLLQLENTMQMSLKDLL
# miR-21 FLuc: miR-21 reporter, rising signal; AID 2288; HeLa miR-21 FLuc reporter, luciferase, 48 h; Potency, µM (top dose mostly 38.3 µM), without a hit: top-dose reporter change, positive = more light; 340,000 tested, under 10 active; active = well fitted rising curve with a large enough effect; inconclusive = small, poorly fitted or top-dose-only effect; inactive = no such curve, though single readings can be large or run the other way;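 also: % of control where 0% means no effect; miR-21 action dims this reporter so a rising signal means less miR-21 action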
#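 HeLa miR-21-FLuc reporter line, endogenous miR-21; 2000 cells/well in DMEM/10% FBS; compound titration up to ~40uM final, 48 h, 37 degree Celsius; luciferase detection reagent, 15 min lysis, CCD luminescence.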
# Rango dissoc inh: inhibitors of RanGTP-induced Rango-importin beta complex dissociation; O95149+P62826; Biochemical FRET Rango-importin beta, RanGTP-induced dissociation; Potency, µM (doses to about 46.1 µM), without a hit: at the highest dose activity change, negative = inhibition; 0.071% of 340,000 active; active means falling FRET ratio curve, often poorly fitted, with flat reads before Ran was added; inconclusive means other falling curves, or compound fluorescence or quenching; inactive means flat or rising ratio curve;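 also: potency is read from the fitted curve at half-maximal effect; % of control where 0% means no effect; nearly all actives have a fitted effect of over 45% in size; -100% = wells without RanGTP and RCC1; the record marks most hits as doubtful in a second field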
#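 Rango (0.1 uM)–importin beta (0.25 uM) complex; RanGTP-RCC1 trigger; 45 min RT; CFP/YFP FRET read.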
# Rango-impB inh: prevents formation of the Rango-importin beta complex; Potency, µM (series often up to 92.2 µM), for the others: at the top dose inhibition of complex formation; 0.031% of 340,000 active; AID 540263; Rango CFP/YFP FRET sensor + importin beta, 45 min; Q14974; active = rising FRET ratio curve, often small or poorly fitted; inconclusive = mostly compound fluorescence or quenching in the first reads; inactive = flat curves in all reads;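 also: potency is read from the fitted curve at half-maximal effect; 0% = DMSO wells and 100% = buffer wells lacking importin beta; nearly all actives have a fitted effect of over 15% in size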
#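 Inhibition scored from the CFP 486 nm/YFP 530 nm FRET ratio 45 min after adding 0.125 microM importin beta to 50 nM Rango biosensor preincubated 5 min with compound (room temperature, PBS with DTT, Tween-20, BSA). No-importin wells as positive control.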
# * = called active by the depositor; ? = inconclusive; / = no result given; & = joins results of further samples; [ ] = dose if it differs, or a comment. These rows are one share of the data, so the mix of outcomes need not match the whole.
SMILES,GLA inh pH 4.5,miR-21 FLuc,Rango dissoc inh,Rango-impB inh
COc1ccc(-n2cc(CN[C@H]3CCCCNC3=O)c(-c3cccc(F)c3)n2)cc1,-6,5%,8%,-4.2%
CCCC(c1nnnn1Cc1ccc(OC)cc1)N1CCC(C(N)=O)CC1 (stereo unspecified),5,0%,-16%,-1.5%
CCn1cc(/C=N\NC(=O)c2cc(-c3ccccc3OC)nc3ccccc23)c(C)n1,-3,2%,-6%,-4.9%
O=S(=O)(NCCN1CCOCC1)c1ccc2ccccc2c1,/,/,-1%,1.0%
Cc1ccc(C)c(NC(=O)C2CCCN2S(=O)(=O)c2ccc3c(c2)n(C)c(=O)c(=O)n3C)c1 (stereo unspecified),-10,-7%&-7%,0%,-1.9%
COc1cc(C(C)=O)ccc1OCCCN1CCC(Cc2ccccc2)CC1,/,-1%,4%,2.0%
Cc1cc(C)nc(NC(=O)C(C)C)n1,5,-4%,1%,-2.7%
COc1ccc2ccccc2c1/C=N\n1c(C)cc(C)c(C(N)=O)c1=O,8,-1%,9%,6.8%
Cc1ccc(CCNC(=O)c2cc(S(=O)(=O)N3CCCCC3)c[nH]2)cc1,/,7%,10%,-1.4%
CCC(CO)n1c(=S)[nH]c2cc(OC)c(OC)cc2c1=O (stereo unspecified),3,8%,22%,-5.7%
Cc1snc(SCC(=O)N/N=C(\N)COc2cccc(C(F)(F)F)c2)c1C#N,1,-1%,1%,0.5%
Cc1ccc(N2C(=O)SC(N(CC(=O)O)c3ccc(C)cc3)C2=O)cc1 (stereo unspecified),3,-14%,25%,-2.6%
CCc1noc(C)c1C(=O)NNC(=O)COc1ccc(Br)cc1,/,0%,9%,0.9%
O=C(Nc1ccc(Cl)c(S(=O)(=O)N2CCOCC2)c1)c1ccc2c(c1)OCO2,/,/,0%,-2.5%
CCOC(=O)N/N=C(\CCC(=O)O)c1cccs1,-4,-34%,-18%,3.7%
O=[N+]([O-])c1cc(/C=N/N2CCN(c3ccccc3)CC2)ccc1Cl,-5,-8%,3%,0.1%
Cn1c(Cc2ccc3c(c2)OCO3)nnc1SCC(=O)NC1CCCC1,2,-1%,/,/
O=C1CC2(CCCC2)CC(=O)N1CCCCN1CCN(c2ncccn2)CC1,-3&2&-6,-5%,-22%,2.5%
NS(=O)(=O)c1ccc(NC(=O)CN2CCc3ccccc3C2)cc1,/,-4%,-5%,-1.2%
COc1ccc(/C=N/NC(=O)c2cccc(Br)c2)cc1CN1CCOCC1,-10,-6%,-16%,0.5%
Cc1ccc(OC(=O)Cn2c(C(F)(F)F)nc3ccccc32)cc1,-2,-3%,13%,-0.8%
O=C1NNC(c2ccccc2)=N/C1=C\c1ccccc1Cl,5,-22%,-2%,0.0%
CCOC(=O)C1CCN(c2c([N+](=O)[O-])c(C(Cl)Cl)nn2-c2ccccc2)CC1,-6,-3%,2%,-0.2%
CCCN(CCC)S(=O)(=O)c1ccc(C(=O)Nc2nnc(-c3cccc(OC)c3)o2)cc1,-6,-3%,-5%,-0.8%
CCOc1ccccc1NC(=S)N1CCC(NC(=O)C(C)(C)C)CC1,5,-1%,-11%,3.0%

# Other records follow.
SMILES,GLA inh pH 4.5,miR-21 FLuc,Rango dissoc inh,Rango-impB inh
COc1ccc(Br)cc1CNC(=O)Cc1cccs1,/,-20%,-5%,-0.4%
O=[N+]([O-])c1ccc(/C=[N+](\[O-])[C@@H]2CCCC[C@@H]2/[N+]([O-])=C/c2ccc([N+](=O)[O-])o2)o1,/,21%,12%,-0.5%
O=c1[nH]cnc(CN2CCCCC2)c1O,/,/,0%,-3.4%
COc1ccccc1CNS(=O)(=O)c1ccc2c(c1)CC(C)N2C(=O)C1CC1 (stereo unspecified),/,13%,25%,2.9%
COc1cc(S(=O)(=O)N2CCN(C(=O)c3ccccc3)CC2)c(OC)cc1Br,-10,0%,2%,-2.6%
CCOC(=O)N1CCN(CC(O)COc2ccc(-c3ccccc3)cc2)CC1 (stereo unspecified),/,-3%,-4%,2.7%
Cc1ccc(C(=O)NCC(c2ccco2)N2CCCCC2)s1 (stereo unspecified),/,/,-14%,0.4%
COCCCn1cc(C(=O)c2cc(OC)ccc2OCC(=O)Nc2cc(C)on2)cc(C#N)c1=O,-23,-14%,-10%,-2.1%
COc1ccccc1CNC(=O)C12CC3CC(CC(C3)C1)C2,/,5%,1%,-1.0%
Nc1c(C(=O)NCc2ccco2)c2nc3ccccc3nc2n1CCc1ccc(F)cc1,4,8%,?,?
COCC(=O)Nc1nc(-c2ccc([N+](=O)[O-])cc2)cs1,4,-11%,-18%,?
CN(C(=O)CSc1nnc(-c2ccncc2)n1Cc1ccccc1)C1CCS(=O)(=O)C1 (stereo unspecified),6,1%,/,/
Cc1cc(NC(=O)CCS(=O)(=O)c2ccc3c(c2)NC(=O)C(C)S3)ccc1Br (stereo unspecified),/,27%,-4%,-2.2%
COc1cc2c(cc1OC)CN(Cc1cc(=O)oc3cc(C)c(C)cc13)CC2,-5,-1%,-23%,?
COc1ccc([N+](=O)[O-])cc1NS(=O)(=O)c1ccccc1,4,-3%,24%,-2.3%
O=C(COc1ncnc2ccccc12)N1CCOCC1,-1,2%,-9%,-2.7%
CCc1c(C)[nH]c2c1C(=O)C(CN1CCOCC1)CC2 (stereo unspecified),-11,/,8%,1.3%
Cc1ccc(C(=O)Nc2nnc(S(=O)(=O)N3CCOCC3)s2)cc1,/,-3%&-5%,0%,0.7%
COc1ccc(Cc2nc3ccc(C(=O)NCc4cc(C)no4)cc3o2)cc1OC,/,3%,42%,-0.8%
O=C(NCCc1ccc(F)cc1)C(=O)Nc1cc2c3c(c1)CC(=O)N3CCC2,/,/,16%,-2.9%
Cc1nc2nc(C)c(CCC(=O)NCc3ccc4c(c3)OCO4)c(C)n2n1,-6,-1%,9%,0.6%
FC(F)(F)c1cccc(-c2cc3ccccc3nc2N2CCCC2)c1,1,-2%,-2%,0.3%
CCC(Oc1ccccc1)C(=O)NCc1ccc(S(N)(=O)=O)cc1 (stereo unspecified),-3,-2%,14%,2.2%
Cc1ccc(C)c(S(=O)(=O)N2CCN(C(=O)Cn3c(=O)cnc4ccccc43)CC2)c1,/,/,-9%,2.4%
O=C(CSc1nnc2ccc(-c3ccco3)nn12)Nc1ccccc1F,/,/,2%,0.0%

# As a working copy, part of the list above:
SMILES,GLA inh pH 4.5,miR-21 FLuc,Rango dissoc inh,Rango-impB inh
O=c1[nH]cnc(CN2CCCCC2)c1O,/,/,0%,-3.4%
COc1ccccc1CNS(=O)(=O)c1ccc2c(c1)CC(C)N2C(=O)C1CC1 (stereo unspecified),/,13%,25%,2.9%

# Next structures
SMILES,GLA inh pH 4.5,miR-21 FLuc,Rango dissoc inh,Rango-impB inh
CCN1C(=O)[C@H]2[C@@H](c3ccc(-c4ccc(F)cc4)cc3)N3CCCC[C@@]3(C(=O)OC)[C@H]2C1=O,/,/,-5%,0.2%
COc1ccc(NC(=O)CNC(=O)Cn2cnc3sc4c(c3c2=O)CCCC4)cc1OC,/,0%,4%,0.9%
Cc1ccc(OCC(=O)OCC(=O)Nc2ccc3c(c2)OCO3)cc1C,/,/,-5%,1.8%
Cc1ccc(S(=O)(=O)N2CC=C(C(=O)NC3CC3)CC2)cc1,3,-1%,-5%,-0.8%
COc1ccc(CNC(=O)c2cc3c(=O)n4cccc(C)c4nc3n(CC3CCCO3)c2=N)cc1 (stereo unspecified),/,3%,?,?
Cc1ccc(CNC(=O)c2ccc(N3CCC4(CC3)CC(c3ccccc3)=NO4)c(NC(=O)c3cccc(C)c3)c2)cc1,/,/,9%,-1.7%
Cc1ccc2cc(CCNC(=O)C3CCCC3)c(=O)[nH]c2c1,-3,0%,39%,-1.7%
Cc1ccc(NC(=O)C2CCCN(S(=O)(=O)c3c(C)noc3C)C2)c(C)c1 (stereo unspecified),-3,-3%,2%,-0.1%
COc1ccc(C2CC(=O)c3cnc(Nc4cc(C)cc(C)c4)nc3C2)cc1 (stereo unspecified),1,-6%,-13%,-0.1%
O=C1c2ccccc2C(=O)N1c1ncc(Cc2ccc(Cl)cc2)s1,-15,-7%,10%,3.0%
Cc1ccc(N2CC(C(=O)OCC(=O)Nc3cc(C)on3)CC2=O)c(C)c1 (stereo unspecified),/,8%,-7%,-3.1%
COC(=O)C1=CN(c2cccc(C(F)(F)F)c2)C=C(C(=O)OC)C1c1ccc(O)c(OC)c1,/,17%,-12%,2.2%
COCCNC(=O)C1CCC(CNS(=O)(=O)c2cccc3nsnc23)CC1 (stereo unspecified),/,-1%,3%,?
CCc1ccc(NC(=O)CN2CCCN(S(=O)(=O)c3ccc(F)cc3)CC2)cc1,/,15%,-1%,0.1%
CCN(CC)CCN(C)C(=O)CCc1nnc(-c2ccc(C)s2)o1,2,-11%,29%,1.3%
CCN(CC)S(=O)(=O)N1CCC(C(=O)NCc2ccc(C)cc2)CC1,3,0%,3%,5.1%
O=C(COc1ccc(C(=S)N2CCCC2)cc1)Nc1ccc(F)cc1,/,12%,-11%,-1.4%
Cc1ccc2[nH]cc(C(=O)NCc3cccs3)c(=O)c2c1,-12,12%,0%,0.5%
O=C1CCC(C(=O)NC2(C(=O)NC3CCCCC3)CCCCC2)N1 (stereo unspecified),10,0%,-16%,0.4%
O=C(Nc1ccc(N2CCOCC2)nc1)c1cccs1,10,-44%,0%,0.1%
COCCn1c(SCc2nc3ccccc3c(=O)[nH]2)nc2ccccc2c1=O,-1,2%,7%,-0.5%
Cc1ccc(S(=O)(=O)Nc2ccc(-c3cn4ccc(C)cc4n3)cc2)cc1,3,-7%,0%,2.2%
Cc1ccc(-c2c(C)sc3nc[nH]c(=O)c23)cc1C,/,10%,0%,-0.2%
COc1ccc(-c2csc(-c3ccccc3)n2)c(OC)c1,-2[21.1 µM],-57%,-4%,-0.7%
CC1CCCN(S(=O)(=O)c2ccc(NC(=O)CNC3CCCC3)cc2)C1 (stereo unspecified),/,-1%,2%,5.2%

# Later entries:
SMILES,GLA inh pH 4.5,miR-21 FLuc,Rango dissoc inh,Rango-impB inh
COc1cccc(NC(=O)c2cc(C(=O)Nc3cccc(OC)c3)n(C)n2)c1,-21,15%,0%,-1.0%
Cc1ccc(-c2csc(NC(=O)Cn3cnc4c3c(=O)n(C)c(=O)n4C)n2)cc1C,8,-13%,0%,2.1%
COc1ccc(C2CC(=O)C(C=NCCN3CCNCC3)=C(O)C2)cc1OC (stereo unspecified),-1,-2%,/,/
CCCP(=O)(CC(=O)N(CC)CC)c1ccccc1 (stereo unspecified),-3,-4%,0%,0.2%
Cc1nnsc1C(=O)N/N=C/c1ccc(OC(F)(F)F)cc1,0,-2%,-17%,-6.0%
O=S(=O)(Cc1ccccc1Cl)N1CCCCC1,-4,-11%,5%,?
O=C(Cn1nc(C(=O)O)c2ccccc2c1=O)Nc1cccc(Br)c1,/,1%,-1%,1.9%
CCC(C)NC(=O)CNC(=S)N(Cc1ccccc1)Cc1cccnc1 (stereo unspecified),4,-10%,20%,8.6%
CC(C)c1nc(CNC(=O)C2CCC(=O)N(CCc3cccc(F)c3)C2)cs1 (stereo unspecified),/,-5%,2%,-2.8%
O=C(Cc1ccccc1[N+](=O)[O-])NCc1ccncc1,9,0%,-8%,-1.3%
COc1cccc(CNC(=O)c2ccc(C(=O)NCc3cccc(OC)c3)cc2)c1,/,-5%,-10%,-1.4%
OCCN(Cc1ccccc1)C(=S)Nc1ccc(Cl)cc1Cl,-14,-26%,2%,-1.1%
C=CCOc1ccc(/C(O)=C2/C(=O)C(=O)N(CCCN3CCOCC3)C2c2ccccc2)cc1 (stereo unspecified),/,/,19%,-7.3%
CCCCC(=O)Nc1sc(C(=O)N(CC)CC)c(C)c1C(=O)OC,1,-10%,1%,-0.8%

# Structures shown so far containing a furan ring, fused or not:
SMILES,GLA inh pH 4.5,miR-21 FLuc,Rango dissoc inh,Rango-impB inh
O=[N+]([O-])c1ccc(/C=[N+](\[O-])[C@@H]2CCCC[C@@H]2/[N+]([O-])=C/c2ccc([N+](=O)[O-])o2)o1,/,21%,12%,-0.5%
Cc1ccc(C(=O)NCC(c2ccco2)N2CCCCC2)s1 (stereo unspecified),/,/,-14%,0.4%
Nc1c(C(=O)NCc2ccco2)c2nc3ccccc3nc2n1CCc1ccc(F)cc1,4,8%,?,?
O=C(CSc1nnc2ccc(-c3ccco3)nn12)Nc1ccccc1F,/,/,2%,0.0%
